Source: PubChem (several laboratories)
Mtb growth – M. tuberculosis H37Rv growth inhibitors, H37Rv strain (AID 1626). M. tuberculosis H37Rv growth inhibition; higher % means a stronger effect. inhibition, % at 10 µM; hits with a dose series show IC50 in µM. hit rate 0.95% among 220,000;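 active = confirmed in a dose series; inconclusive = inhibition above 80% but not taken into the dose series; inactive = below 80% or under 30% at every dose of the series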;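 also: bacteria incubated seven days before Alamar blue readout; 0% = bacteria only wells and 100% = bacteria with antibiotic wells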
RecA splice inh – Mtb RecA intein splicing inhibitors, primary screen, biochemical, fluorescence, HTS. Protein RecA (Mycobacterium tuberculosis (strain ATCC 25618 / H37Rv)), P9WHJ3. cell-free RecA intein splicing. inhibition, %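 (about 9 µM by stock and volumes)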. hit rate 0.75% among 290,000; in the data active = inhibition above about 30%; inconclusive = no clear call, values can overlap the other calls;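 also: 0% = vehicle wells and 100% = reference inhibitor control wells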
Target sequence (P9WHJ3 whole entry, looked up, canonical isoform): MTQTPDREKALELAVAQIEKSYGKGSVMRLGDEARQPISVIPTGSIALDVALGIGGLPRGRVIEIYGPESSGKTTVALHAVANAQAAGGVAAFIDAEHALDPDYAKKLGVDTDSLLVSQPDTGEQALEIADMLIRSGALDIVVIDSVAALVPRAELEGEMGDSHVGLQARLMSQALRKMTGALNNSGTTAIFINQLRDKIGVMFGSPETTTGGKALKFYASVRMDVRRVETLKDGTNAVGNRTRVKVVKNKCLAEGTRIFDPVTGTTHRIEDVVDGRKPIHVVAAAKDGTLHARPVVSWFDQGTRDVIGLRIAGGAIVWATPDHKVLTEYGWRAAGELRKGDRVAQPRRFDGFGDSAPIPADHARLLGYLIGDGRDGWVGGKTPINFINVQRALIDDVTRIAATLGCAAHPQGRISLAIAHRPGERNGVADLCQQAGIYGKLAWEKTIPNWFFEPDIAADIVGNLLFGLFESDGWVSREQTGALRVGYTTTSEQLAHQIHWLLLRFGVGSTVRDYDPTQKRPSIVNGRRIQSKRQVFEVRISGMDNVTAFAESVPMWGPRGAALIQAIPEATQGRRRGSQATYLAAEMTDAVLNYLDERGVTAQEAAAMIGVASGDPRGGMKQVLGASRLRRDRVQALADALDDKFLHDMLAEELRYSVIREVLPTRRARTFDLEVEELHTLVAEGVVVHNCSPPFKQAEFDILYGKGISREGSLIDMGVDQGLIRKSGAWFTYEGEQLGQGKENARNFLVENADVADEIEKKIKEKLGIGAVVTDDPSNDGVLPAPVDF
Arbovirus inh – antivirals against arbovirus infection, primary screen, cell-based, full library, 10K replicate subset. arbovirus infection cell-based antiviral screen. hit rate 0.37% among 200,000. inhibition, % at 10 µM;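 active = inhibition from about 30%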;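 also: bluetongue infection of BSR cells; cell survival read as ATP light after 72 h; 0% = infected wells without compound and 100% = uninfected wells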
YopH inh – YopH tyrosine phosphatase inhibitors, primary screen, biochemical, fluorescence Ex485/Em525; YopH tyrosine phosphatase [Yersinia enterocolitica]; hit rate 0.16% among 140,000; inhibition, %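 (about 10 µM by stock and volumes)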;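 active = inhibition of 50% or more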;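 also: controls were vehicle for no effect and minimum signal wells for full effect; inactives centre near -20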
Mtb bLac sens – beta-lactam sensitization of Mtb H37Rv, H37Rv. M. tuberculosis H37Rv growth with meropenem, percent inhibition; hits of this screen are not shown here. hit rate 0.27% among 330,000. AID 434955, 2010. inhibition, % at 25 µM;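 active = about 74% or more and at least 40 points above the plate without the antibiotic, then above 30% in a dose series; inconclusive = first-round hits that could not be retested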;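 also: growth measured after seven days incubation then overnight dye step; 0% = bacteria only wells and 100% = bacteria with antibiotic; twin plates without the antibiotic show which effects depend on it; some results filed as inactive read as strong as hits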
Arbovirus inh repeat – also measured in Arbovirus inh; calls as there; inhibition, %; measured here: 10K subset replicate screen; many hits read low in the repeat;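 first of two repeat runs on a subset; 0% = infected and 100% = uninfected wells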
Numbers without * were called inactive; ? = inconclusive; nt = not tested or not shown. Some of the compounds tested; the hit share may differ from the screen's.

A first look, 5 compounds:
SMILES	Mtb growth	RecA splice inh	Arbovirus inh	YopH inh	Mtb bLac sens	others
CC12CCC(=O)N1C(C(=O)NCCc1ccc(S(N)(=O)=O)cc1)CS2 (stereo not drawn)	nt	-1.7	nt	nt	-1
Cc1onc(-c2ccccc2Cl)c1C(=O)Nc1cnn(Cc2ccccc2)c1	8%	1.5	2	nt	-1	Arbovirus inh repeat=-10
CC(Sc1ccccc1)C(=O)N1CCN(S(=O)(=O)c2ccc(Cl)cc2)CC1 (stereo not drawn)	nt	1.2	nt	nt	7
O=C(N/N=C/c1cccn1-c1ccc([N+](=O)[O-])cc1)c1cccnc1	6%	-5.6	nt	nt	1
O=C(COc1ccccc1)Nc1nnc(S(=O)(=O)N2CCCC2)s1	nt	-1.3	nt	nt	6

The list itself, repeating the preview:
SMILES	Mtb growth	RecA splice inh	Arbovirus inh	YopH inh	Mtb bLac sens	others
CC12CCC(=O)N1C(C(=O)NCCc1ccc(S(N)(=O)=O)cc1)CS2 (stereo not drawn)	nt	-1.7	nt	nt	-1
Cc1onc(-c2ccccc2Cl)c1C(=O)Nc1cnn(Cc2ccccc2)c1	8%	1.5	2	nt	-1	Arbovirus inh repeat=-10
CC(Sc1ccccc1)C(=O)N1CCN(S(=O)(=O)c2ccc(Cl)cc2)CC1 (stereo not drawn)	nt	1.2	nt	nt	7
O=C(N/N=C/c1cccn1-c1ccc([N+](=O)[O-])cc1)c1cccnc1	6%	-5.6	nt	nt	1
O=C(COc1ccccc1)Nc1nnc(S(=O)(=O)N2CCCC2)s1	nt	-1.3	nt	nt	6
CCC(OCC(O)CN1CCCCC1)c1ccccc1 (stereo not drawn)	nt	-3.4	nt	nt	-6
CC(C)CC(CO)N1CCN(C(=O)c2ccc(Cl)cc2)CCC1=O (stereo not drawn)	-12%	0.5	nt	nt	-18
COc1ccc(CN2C(=NC(=O)c3ccccc3)SC3CS(=O)(=O)CC32)cc1OC (stereo not drawn)	nt	-0.5	nt	nt	3
CC1CCCC(NC(=O)COC(=O)Cc2ccccc2)C1C (stereo not drawn)	-11%	-1.2	0	-3	-19
O=C(NC1CC2CCCC(C1)N2C(=O)NCc1ccccc1)C1CC1 (stereo not drawn)	-14%	nt	7	-42	-7
CCOCCCNC(=O)Cn1cnc2c(cnn2-c2ccc(C)c(C)c2)c1=O	nt	-0.5	nt	nt	-7
COc1cc(CC2C(=O)N(C)C(=O)N(C)C2=O)ccc1OCc1ccccc1	1%	nt	3	-1	-5	Arbovirus inh repeat=-3
O=C(COC(=O)c1c(Cl)cccc1Cl)Nc1ccccc1Br	0%	4.4	2	-13	1
Cc1ccc(CNC(=O)CS(=O)(=O)c2cn(CC(=O)N3CCOCC3)c3ccccc23)cc1	nt	-0.6	nt	nt	-14
Cc1ccc(S(=O)(=O)N2CCN(CCO)CC2)cc1-c1nnc2c3ccccc3c(C)nn12	-14%	-0.6	nt	-31	-12
C=CCn1c(SCC(=O)Nc2nc(C)cs2)nnc1C(NC(=O)c1ccccc1)C(C)C (stereo not drawn)	-6%	0.5	7	-15	-9
CCCc1nc2ccccc2c(=O)n1NC(=O)c1c(O)c2ccccc2n(C)c1=O	-6%	-1.7	8	nt	-6
CCCn1c(=O)c2c(nc3n2CCS3)n(C)c1=O	2%	nt	0	nt	7
CC1CCN(S(=O)(=O)c2ccc3c(c2)c(=O)c(C(=O)NCc2ccccc2Cl)cn3C)CC1	10%	0.4	3	-2	-1
COc1ccc(/C=N/OCC(=O)N2CC3(C)CC2CC(C)(C)C3)cc1OC (stereo not drawn)	3%	2.3	3	-11	14
O=C(O)c1cccc(S(=O)(=O)Nc2ccccc2Cc2ccccc2)c1	nt	5.2	nt	nt	0
NCC(c1ccccc1)(c1ccccc1)c1ccccc1	7%	1.8	-14	-17	2
NS(=O)(=O)c1ccc(NC(=O)CSc2ccccn2)cc1	-3%	-0.7	6	0	1
CC(=O)c1cnc(Nc2cccc(Cl)c2Cl)s1	-3%	0.4	-23	nt	6
COc1ccc(NC(=S)N2CCC(C(=O)c3ccc(C)cc3)CC2)c(OC)c1	-8%	15	1	nt	-1
COc1cc(/C=N\NC(=O)c2c(C)nc3cc(C)ccn23)ccc1O	-5%	-2.6	-5	nt	2
NC(=O)CN1CCOCCN(CC(N)=O)CCOCC1	-6%	0.3	nt	nt	2
Cc1cccc(NC(=O)CCC(=O)N/N=C/c2ccco2)c1C	-9%	2.1	0	-41	4
Cc1[nH]c2ccc(-c3n[nH]c(=S)n3C)cc2c1C	7%	-6.8	-2	-29	-1	Arbovirus inh repeat=-5
COc1cccc(C(=O)NNC(=O)c2ccc(NS(=O)(=O)c3cccs3)cc2)c1OC	nt	1.5	nt	nt	1
Cc1ccc(S(=O)(=O)N/N=C\c2ccc3c(c2)OCO3)c(C)c1	nt	1.6	nt	nt	-6
O=C(COC(=O)c1ccccc1SCC(=O)N1CCCC1)NC1CCCCC1	nt	1.0	nt	nt	-8
Cc1nc(NS(=O)(=O)c2cccs2)c2c3c(sc2n1)CCC3	-15%	1.7	12	-30	-7
COc1ccc(C(O)P(=O)(OC(C)C)OC(C)C)cc1 (stereo not drawn)	-1%	-1.0	nt	nt	-7
CC1CCc2cc(F)ccc2N1C(=O)c1ccc2c(c1)OCO2 (stereo not drawn)	-12%	4.1	2	-87	9
CC(C)NC(=O)N(O)C1N(C(C)C)C(=O)N(Cc2ccc3c(c2)OCO3)C1(C)C (stereo not drawn)	3%	-8.1	nt	nt	0
CCN1CCN(CC(O)COC(c2ccccc2)c2ccccc2)CC1 (stereo not drawn)	-7%	3.4	3	nt	6
CC(=O)NC(c1ccc(Cl)cc1Cl)c1ccc2cccnc2c1O (stereo not drawn)	nt	0.2	nt	nt	7
CC(C)(C)n1nnnc1CN(Cc1ccc(F)cc1)Cc1ccco1	3%	1.8	-6	-14	6
Cc1n[nH]c(=S)n1/N=C/c1ccccc1	-12%	8.6	2	-29	5
CN(C)CCn1cnc2ccccc21	-9%	5.7	nt	nt	-5
O=C(c1ccccc1)N1CCc2[nH]nc(-c3ccccc3)c2C1	nt	0.8	nt	nt	-9
COc1ccc(Cl)cc1NC(=O)C/C(C)=N/NC(=O)COc1ccc(C)cc1	nt	2.9	nt	nt	1
CCC(CC)C(=O)Nc1cc(=O)n(C)c(=O)n1C	1%	0.4	-2	-39	-2	Arbovirus inh repeat=3
Cn1c(CO)cnc1S(=O)(=O)Cc1c(Cl)cccc1Cl	nt	-0.5	nt	nt	-6
O=C(O)CSc1nnc(Nc2ccccc2)n1-c1ccccc1	-5%	-0.5	9	nt	3
Nc1nnc(SCc2ccccc2Cl)s1	-4%	1.6	13	11	-2
CCCCOC(=O)C(C)c1c(C)[nH]c(=S)[nH]c1=O (stereo not drawn)	1%	nt	1	-60	-1
COc1ccc(OC)c(NC(=O)C2CC(C)=C(C)CC2C(=O)O)c1 (stereo not drawn)	-2%	0.4	-2	-32	1
Cc1ccc(OCc2cc(C(=O)N(C)CCc3ccccn3)no2)cc1C	nt	3.4	nt	nt	-8
COC(=O)/C(C#N)=C/c1c(-c2ccccc2)nc2n1CCS2	-4%	-0.8	nt	nt	-6
COc1ccc(CC2(C)OC(c3ccccc3)=NN2C(C)=O)cc1 (stereo not drawn)	-5%	6.9	-9	-24	5
COc1ccc(NS(=O)(=O)c2ccc(C)c(C(=O)NNC(=O)c3ccccc3O)c2)cc1	nt	12	nt	nt	1
COc1ccccc1NC(=S)N1CCN(c2ncccn2)CC1	5%	-1.5	4	nt	-4
NC(=O)C1(N2CCCCC2)CCN(C(=O)c2ccc(C#CC3(O)CCCCC3)cc2)CC1	3%	1.5	6	11	-3
Cc1ccc(CSc2nnnn2C)cc1	0%	nt	2	10	-15
COc1ccc(CCCc2nnc(SCc3nc4ccccc4c(=O)[nH]3)n2C)cc1	-8%	-1.8	32*	nt	-6
CCn1cc(C(=O)NCc2cccc(F)c2)c(=O)c2cc(F)c(N3CCN(C(=O)c4ccco4)CC3)cc21	2.7µM*	3.3	-25	-15	99
COc1ccccc1-n1cnnc1SCC(=O)Nc1cccc(S(N)(=O)=O)c1	nt	4.1	nt	nt	-5
COc1ccc(NC(=O)NCCN2CCc3ccccc3C2)cc1	6%	-2.4	-1	-73	-8
Following part
SMILES	Mtb growth	RecA splice inh	Arbovirus inh	YopH inh	Mtb bLac sens	others
CCC(C)(C)NC(=O)C(c1ccco1)N(C(=O)Cn1nnc2ccccc21)c1ccc2c(c1)OCO2 (stereo not drawn)	0%	3.2	7	-1	-2
CCN1CCN(C(CNS(=O)(=O)c2ccc(Br)cc2)c2cccnc2)CC1 (stereo not drawn)	nt	-0.3	nt	nt	-13
COc1ccc(CN2CC(=O)N(c3ccc(Cl)cc3)C2=S)cc1OC	nt	-0.5	nt	nt	2
O=C(NNC(=O)c1ccc([N+](=O)[O-])cc1)c1ccc(F)cc1	nt	4.5	nt	nt	-12
Cc1cc(SCC(=O)N/N=C/c2ccccc2C(=O)O)c(C)cc1Br	nt	0.4	nt	nt	2
CCOC(=O)c1ccccc1NC(=O)COC(=O)CCC(=O)N1CCOCC1	nt	0.7	nt	nt	?
O=C(N/N=C/c1ccc(Cl)cc1Cl)c1cccc(F)c1	nt	nt	-14	-11	-2
CCOc1ccc(NC(=O)C2CCCN2C(=O)NC2CCCCC2)cc1 (stereo not drawn)	nt	1.5	nt	nt	4
COc1cc(-n2c(C)nc3cc(C(=O)N4CCOCC4)ccc32)cc(OC)c1OC	-12%	0.7	2	-42	11
COc1ccc(CCN(C)c2ccc(C(N)=O)cc2[N+](=O)[O-])cc1OC	9%	-1.0	2	nt	-4
CCCNC(=O)CS(=O)Cc1nc(-c2cccc(OC)c2)oc1C (stereo not drawn)	3%	0.7	3	-37	-7	Arbovirus inh repeat=-1
Cc1ccccc1-n1c(-c2ccoc2C)n[nH]c1=S	1%	-1.5	1	-28	-1
Cn1cc([N+](=O)[O-])c(C(=O)Nc2cc(Oc3ccccc3)cc([N+](=O)[O-])c2)n1	-2%	-0.5	-31	-23	-4
Cc1c(NC(=O)c2ccc3c(c2)OCO3)cccc1-c1nc2ccccc2o1	-7%	-0.6	2	-33	92
Cc1cccc(NC(=O)c2nnn(-c3cccc(C(F)(F)F)c3)c2N)c1	-5%	-1.0	-14	nt	3
CNS(=O)(=O)c1cccc2nsnc12	-5%	0.7	-1	-27	-3
Fc1ccc(-c2nn(-c3ccccc3)cc2CNCc2ccccc2)cc1	15%	11	-30	nt	98
C=CCSc1nc2c(c(=O)[nH]c(=O)n2C)n1CC	-8%	0.8	12	-33	53
Cn1c(Cn2cnc([N+](=O)[O-])n2)nnc1SCC(=O)Nc1cccc(Cl)c1	11%	-7.0	-3	-22	7
CC(=O)Nc1cc(C(F)(F)F)ccc1Oc1cccc(Br)c1	7%	5.1	-16	-3	3
Cc1c(NC(=O)c2ccc(C(=O)Nc3c(C)n(C)n(-c4ccccc4)c3=O)cc2)c(=O)n(-c2ccccc2)n1C	nt	-1.9	nt	nt	-4
Cc1ccc(C(=O)Nc2ccc(C(=O)N/N=C/c3cccnc3)cc2)cc1	nt	1.2	nt	nt	12
OCCC1CN(Cc2ccccc2-c2ccco2)CCN1C1CCCC1 (stereo not drawn)	0%	0.0	-11	nt	-3
COc1ccc(CC2(CCc3ccncc3)C(=O)NC(=O)NC2=O)cc1	-3%	7.5	7	nt	-5
O=C(Cc1ccccc1)N/N=C/c1ccc(OCC(=O)Nc2ccccc2)cc1	10%	1.5	-9	-49	80
CCCNC(=O)Nc1cc(C)on1	2%	2.7	3	-43	-18
CCN(CC)S(=O)(=O)c1ccc(Cl)c(NC(=O)CSc2nnc(-c3cccs3)o2)c1	-5%	2.6	-5	-21	-2
CNC(=S)Nc1ccc([N+](=O)[O-])cc1	nt	nt	1	nt	0
O=C(Nn1c(C2CCC2)nc2ccccc2c1=O)c1cccs1	-7%	-1.6	0	nt	7
c1ccc(-c2nnc(SCCC3OCCCO3)o2)cc1	nt	nt	5	-32	11
CC(=O)Nc1ccc(N/C(=N\S(=O)(=O)c2ccccc2)c2ccccc2)cc1	nt	1.1	nt	nt	-15
COc1ccc(CC(=O)Nc2ccc(OC)nc2)cc1	0%	-2.7	2	nt	-1
Cc1ccccc1OCc1nc(C#N)c(N2CCCC2)o1	7%	0.8	-1	nt	7
COc1cccc(C(=O)NCCS(=O)(=O)N2CCOCC2)c1	nt	3.0	nt	nt	-5
O=c1cc(-c2ccc(O)cc2)oc2cc(O)c(C3OC(CO)C(O)C(O)C3O)c(O)c12 (stereo not drawn)	-5%	nt	6	nt	-4
COc1ccc(-n2nc(C(=O)Nc3ccc4c(c3)OCO4)c3ccccc3c2=O)cc1	nt	1.2	-7	-20	-6
O=C(NCc1ccco1)c1ccc(COCC(F)(F)C(F)F)cc1	-14%	0.4	-7	-49	-10
